RTF Ca sens act: cardiac RTF calcium sensitivity activators, primary screen, biochemical, IANBD-TnC fluorescence, EC20 calcium; IANBD-labeled TnC RTF fluorescence at EC20 calcium; 0% EC20 calcium, 100% full calcium; actives 0.24% (n = 340,000); activation, % at 7.2 µM; AID 493008, 2010;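 active = activation above the mean over all tested compounds plus 3 SD, cut at about 30% in these data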;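 also: rise in fluorescence read as greater calcium sensitivity of cardiac thin filaments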
V-ATPase pHluor: regulators of yeast V-ATPase proton pumping, primary screen, pHLuorin cytosolic pH fluorescence; actives 0.37% (n = 350,000); response, % at 10 µM; AID 504577, 2011; S. cerevisiae; in the data active = response mostly above about 7.3%, no sharp cut-off; inactive = mostly below about 5.4%; also: actives read high; inactives centre near 0; some compounds called inactive have numbers as strong as hits; reference of the scale not given here
CAL-PDZ inh HTS: untagged CAL PDZ binding inhibitors, primary screen, biochemical, fluorescence polarization, HTS. Golgi-associated PDZ and coiled-coil motif-containing protein (Homo sapiens), Q9HD26. purified CAL PDZ, TMR-peptide fluorescence polarization, 1 h. inhibition, % at 24.9 µM. actives 0.92% (n = 300,000). AID 602252, 2012;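 active = mean inhibition of at least 30% with at least half of replicates also reaching 30%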;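 also: 0% = DMSO neutral control and 100% = excess unlabeled competitor peptide PRC23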
RTF Ca sens inh: cardiac RTF calcium sensitivity inhibitors, primary screen, biochemical, IANBD-TnC fluorescence, EC70 calcium. AID 493244, 2011. inhibition, % at 7.15 µM. actives 0.12% (n = 340,000). Troponin I, cardiac muscle (Homo sapiens) + Troponin T, cardiac muscle (Homo sapiens) + …. IANBD-labeled cardiac RTF, Ca2+ fluorescence;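 active = inhibition above the mean inhibition of all tested compounds plus 3 SD, cut at about 17% in these data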;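 also: assay run at fixed EC70 calcium of 1.6 mM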
HTR5A ag ctr: HTR5A agonists in luminescence cell assay, primary screen, counter-screen for OPRM1-OPRD1 heterodimer agonist project, full-deck HTS; 5-hydroxytryptamine receptor 5A (Homo sapiens), P47898; AID 504692, 2011; cell-based; activation, % at 9.3 µM; actives 0.61% (n = 340,000); in the data active = activation mostly above about 9.5%, no sharp cut-off; inactive = mostly below about 7.6%;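 also: 0% = cells with vehicle only and 100% = reference agonist; strong numbers were not always called active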
Target sequence (P47898 whole entry, looked up): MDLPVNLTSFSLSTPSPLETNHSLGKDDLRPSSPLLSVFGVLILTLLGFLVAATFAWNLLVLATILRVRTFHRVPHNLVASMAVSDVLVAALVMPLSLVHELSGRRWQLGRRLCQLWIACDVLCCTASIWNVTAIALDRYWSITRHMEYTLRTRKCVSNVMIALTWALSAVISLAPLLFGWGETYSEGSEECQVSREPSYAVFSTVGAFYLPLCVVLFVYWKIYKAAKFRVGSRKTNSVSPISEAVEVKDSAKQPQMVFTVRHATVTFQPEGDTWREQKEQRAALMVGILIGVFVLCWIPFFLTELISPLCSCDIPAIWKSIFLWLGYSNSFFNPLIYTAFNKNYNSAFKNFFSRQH
HTR5A inv ag: HTR5A inverse agonists in luminescence cell assay, primary screen, counter-screen for OPRM1-OPRD1 heterodimer inverse agonist project, full-deck HTS; actives 0.083% (n = 340,000); inhibition, % at 9.3 µM; HTR5A cell line, inverse agonism; in the data active = inhibition mostly above about 23%, no sharp cut-off; inactive = mostly below about 18%;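 also: 0% = cells with DMSO and 100% = no-cell wells with DMSO; some compounds called inactive have numbers as strong as hits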
Starred values were filed as active, the others as inactive. The list is partial, so the mix of outcomes need not match the whole.

Preview, seven compounds:
# | molecule | RTF Ca sens inh | HTR5A ag ctr | V-ATPase pHluor | CAL-PDZ inh HTS | RTF Ca sens act | HTR5A inv ag
1 | COc1ccc(C(=O)N2CCCC2=O)cc1 | 4 | 9 | -3 | -2 | -2 | -15
2 | CCOC(=O)c1cncn1C(C)c1ccccc1 (stereo not given) | 9 | 0 | -1 | -2 | 2 | 1
3 | c1ccc(C2(N3CCCCC3)CCCCC2)cc1 | -3 | -8 | 1 | 0 | -5 | 18
4 | Oc1ccc2c3c1O[C@H]1c4oc5ccccc5c4C[C@@]4(O)[C@@H](C2)N(CC2CC2)CC[C@]314 | 27* | -1 | 0 | -8 | -1 | 3
5 | CCOC(=O)C1(c2ccccc2)CCN(CCC(C#N)(c2ccccc2)c2ccccc2)CC1 | 1 | 7 | -2 | -4 | 6 | -25
6 | CC1CCC2[C@@H](C)C(=O)OC3O[C@]4(C)CCC1C32OO4 (stereo not given in full) | -4 | 7 | 1 | -3 | -5 | -19
7 | Clc1ccc(CSC(Cn2ccnc2)c2ccc(Cl)cc2Cl)cc1 (stereo not given) | 6 | 8 | 1 | -4 | 8 | -21

Results, from the first entry:
# | molecule | RTF Ca sens inh | HTR5A ag ctr | V-ATPase pHluor | CAL-PDZ inh HTS | RTF Ca sens act | HTR5A inv ag
1 | COc1ccc(C(=O)N2CCCC2=O)cc1 | 4 | 9 | -3 | -2 | -2 | -15
2 | CCOC(=O)c1cncn1C(C)c1ccccc1 (stereo not given) | 9 | 0 | -1 | -2 | 2 | 1
3 | c1ccc(C2(N3CCCCC3)CCCCC2)cc1 | -3 | -8 | 1 | 0 | -5 | 18
4 | Oc1ccc2c3c1O[C@H]1c4oc5ccccc5c4C[C@@]4(O)[C@@H](C2)N(CC2CC2)CC[C@]314 | 27* | -1 | 0 | -8 | -1 | 3
5 | CCOC(=O)C1(c2ccccc2)CCN(CCC(C#N)(c2ccccc2)c2ccccc2)CC1 | 1 | 7 | -2 | -4 | 6 | -25
6 | CC1CCC2[C@@H](C)C(=O)OC3O[C@]4(C)CCC1C32OO4 (stereo not given in full) | -4 | 7 | 1 | -3 | -5 | -19
7 | Clc1ccc(CSC(Cn2ccnc2)c2ccc(Cl)cc2Cl)cc1 (stereo not given) | 6 | 8 | 1 | -4 | 8 | -21
8 | CC[C@@H](CO)NC(=O)[C@@H]1C=C2c3cccc4[nH]cc(c34)C[C@H]2N(C)C1 | -14 | 91* | 1 | -1 | 7 | -198
9 | O=c1[nH]c2ccccc2n1CCCN1CCC(n2c(=O)[nH]c3cc(Cl)ccc32)CC1 | -14 | 10 | 1 | -5 | 1 | 10
10 | CN(C)C1C(=O)C(C(N)=O)=C(O)C2(O)C(=O)C3=C(O)c4c(O)cccc4C(C)(O)C3CC12 (stereo not given) | -3 | 5 | 1 | -1 | 4 | -10
11 | CN1CCCC1CCOC(C)(c1ccccc1)c1ccc(Cl)cc1 (stereo not given) | 6 | -1 | 1 | -3 | 2 | -16
12 | CCC1(c2ccc(N)cc2)CCC(=O)NC1=O (stereo not given) | -6 | 0 | -2 | 6 | 11 | -9
13 | CNCCC(Oc1ccc(C(F)(F)F)cc1)c1ccccc1 (stereo not given) | -12 | -1 | 0 | -3 | 1 | 0
14 | CNCC[C@@H](Oc1ccc(C(F)(F)F)cc1)c1ccccc1 | -12 | 3 | 0 | -2 | 0 | -4
15 | [Cl][Pt+2][Cl].[NH-]C1CCCCC1[NH-] (stereo not given) | 1 | 2 | -3 | 5 | 1 | -8

Assay outcomes: PubChem BioAssay, several laboratories
